gsp ag: activates gsp, the McCune-Albright syndrome mutation; gsp mutant cells, cAMP HTRF, 30 min; control for the full effect not named in the record; Potency, µM (series often up to 76.9 µM), without a hit: at the top dose activation (cAMP increase), actives largely listed as activators; 340,000 tested, 0.13% active; AID 624287; active = well fitted activation curve with a large enough effect; inconclusive = small, poorly fitted or top-dose-only effect, or another doubt; inactive = no such curve, though single readings can be large or run the other way; cell line not stated here;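 also: phosphodiesterase inhibitor Ro 20-1724 added with compounds to block cAMP breakdown; potency is read from the fitted curve at half-maximal effect; nearly all actives have a fitted effect of over 60% in size; about a fifth of the inactives were tested at one dose only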
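Cells stably selected in G418 were plated at 2000/well, grown 16-24 hr, then given compounds in DMSO with the PDE inhibitor […] (300 uM solution added) for 30 min at 37C; cAMP was read by HTRF.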
Sfp inh: blocks B. subtilis Sfp PPTase activity | Biochemical Sfp PPTase activity, qHTS | Potency, µM, for inactives: max response, negative = inhibition, actives largely listed as inhibitors | 310,000 tested, 3.5% active; active = well fitted inhibition curve with a large enough effect; inconclusive = small, poorly fitted or top-dose-only effect, or another doubt; inactive = no such curve, though single readings can be large or run the other way;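 also: the enzyme is Sfp with the accession as filed and its product quenches rhodamine fluorescence; potency is read from the fitted curve at half-maximal effect; 0% = enzyme reaction without inhibitor and -100% = no enzyme wells; top concentration of the series not given in the record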
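Reaction rates are the 30-min fluorescence difference (ex 525, em 598 nm) in wells containing 15 nM Sfp, 5 uM rhodamine-CoA and 12.5 uM BHQ-2-YbbR at pH 7.6 with 10 mM MgCl2.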
ClpP mod: qHTS Assay for Activators of ClpP. 340,000 tested, 1.9% active. AID 651965, 2013. Potency, µM (titrated, usually from 57.5 µM), inactives show at the highest dose activity change, negative = active. ATP-dependent Clp protease proteolytic subunit (Bacillus subtilis (strain 168)), P80244. purified B. subtilis ClpP, FRET peptide cleavage, 20 min; active = well fitted falling curve with a large enough effect; inconclusive = small, poorly fitted or top-dose-only effect; inactive = no such curve, though single readings can be large or run the other way; also: potency is read from the fitted curve at half-maximal effect; the source files actives as falling curves though it sought activators and does not explain the sign; nearly all actives have a fitted effect of over 65% in size; many hits overshoot -100%
Target sequence (P80244 whole entry, looked up): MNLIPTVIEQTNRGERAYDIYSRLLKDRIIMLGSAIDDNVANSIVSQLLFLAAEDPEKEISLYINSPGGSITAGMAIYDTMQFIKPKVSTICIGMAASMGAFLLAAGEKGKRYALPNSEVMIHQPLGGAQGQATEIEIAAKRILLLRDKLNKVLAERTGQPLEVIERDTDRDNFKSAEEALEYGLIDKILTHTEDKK
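Purified B. subtilis ClpP, 10 microg/mL final in Tris/HCl pH8 with KCl, BSA, glycerol and Tween-20, cleaved an Abz/nitrotyrosine-quenched decapeptide. Fluorescence (ex 320, em 430) was read at 0 and 20 min at room temperature. Delta was normalized to 5.8 microM ADEP and DMSO/no-enzyme controls.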
TRPV1 PAM: potentiators of human vanilloid receptor 1 (TRPV1). Q8NER1. 320,000 tested, 0.02% active. AID 540277. TRPV1-expressing cells, Fluo-8 calcium influx, capsaicin EC20 potentiation; host cell line not named in the record; control for the full effect not named in the record. potentiation, % at 8.33 µM; active means potentiation above 80%; inconclusive means 30% to 80%; inactive means below 30%; also: 0% is about no effect
Target sequence (Q8NER1 whole entry, looked up): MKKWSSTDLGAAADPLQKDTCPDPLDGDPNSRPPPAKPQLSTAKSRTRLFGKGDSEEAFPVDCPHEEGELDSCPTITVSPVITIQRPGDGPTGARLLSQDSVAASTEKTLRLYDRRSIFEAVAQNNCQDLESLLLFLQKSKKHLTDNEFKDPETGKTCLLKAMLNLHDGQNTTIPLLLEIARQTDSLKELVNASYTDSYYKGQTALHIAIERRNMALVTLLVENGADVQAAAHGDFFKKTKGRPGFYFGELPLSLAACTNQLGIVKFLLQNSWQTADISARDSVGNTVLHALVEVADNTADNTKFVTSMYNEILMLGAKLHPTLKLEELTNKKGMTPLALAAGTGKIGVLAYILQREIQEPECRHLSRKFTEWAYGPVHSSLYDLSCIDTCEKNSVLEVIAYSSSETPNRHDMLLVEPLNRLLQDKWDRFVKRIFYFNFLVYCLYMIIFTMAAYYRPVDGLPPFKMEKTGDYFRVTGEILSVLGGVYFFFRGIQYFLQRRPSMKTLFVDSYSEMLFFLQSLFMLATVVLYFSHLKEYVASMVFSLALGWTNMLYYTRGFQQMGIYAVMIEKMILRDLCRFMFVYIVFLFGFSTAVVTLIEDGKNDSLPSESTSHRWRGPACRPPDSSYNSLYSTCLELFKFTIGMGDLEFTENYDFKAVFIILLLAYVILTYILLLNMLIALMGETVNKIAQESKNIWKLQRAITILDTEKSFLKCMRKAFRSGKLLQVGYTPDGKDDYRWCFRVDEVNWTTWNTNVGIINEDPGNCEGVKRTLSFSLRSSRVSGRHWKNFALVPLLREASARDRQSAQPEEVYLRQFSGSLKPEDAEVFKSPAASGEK
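Cells expressing TRPV1 were dye-loaded with Fluo-8 and read kinetically: 10 s baseline, 3 min after compound (agonist portion), then 2 min after EC20 capsaicin (allosteric enhancer portion). Calcium-bound dye fluorescence at 480/520 nm.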
gsp antagonist: gsp mutant antagonism; gsp-mutant cells, cAMP HTRF, 30 min; control for the full effect not named in the record; Potency, µM (series often up to 76.9 µM), without a hit: at the top dose activity change, negative = inhibition, hits mostly inhibitors; 340,000 tested, 0.4% active; active = falling curve of any shape with a large fitted effect; inconclusive = falling curve, mostly with a smaller effect; inactive = flat or rising curve; cell line not stated here;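 also: intracellular cAMP measured with PDE inhibitor Ro 20-1724 present during compound exposure; potency is read from the fitted curve at half-maximal effect; % is scaled to controls: 0 for no effect and ±100 for the full control effect; nearly all actives have a fitted effect of over 65% in size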
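Measurement of cellular cAMP by homogeneous time-resolved fluorescence following a 30 min compound exposure at 37C. The PDE inhibitor […] was present throughout; the assay buffer was DPBS with 0.05% BSA and 0.005% Tween 20.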
Menin-MLL FL inh: displaces fluorescein MLL peptide from human menin; Fluorescence polarization, fluorescein-MLL peptide displacement from menin; FP activity change, % at 61.4 µM; 290,000 tested, under 10 active; AID 1766; inconclusive = falling polarisation curve, or a change in total fluorescence; inactive = total fluorescence flat and polarisation flat or rising; no compound was filed as active; the % refers to the polarisation; negative = inhibition;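 also: % of control where 0% means no effect; inhibitors lower the polarisation; unlabelled MLL peptide was the positive control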
TRPML1 inh: inhibitors of human TRPML1 channel. AID 624415. 390,000 tested, 0.02% active. Q9GZU1. TRPML1-inducible cells, Ca2+ dye fluorescence, FDSS; active compounds read low; inhibition of EC80 agonist-evoked calcium signal. activity change, negative = inhibition, % (concentration not given with the values); in the data active means activity change below about -50%; inconclusive means about -30% to -50%; inactive means above about -30%;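 also: stimulus is agonist 54-4 at its EC80 concentration; % is scaled to controls: 0 for no effect and ±100 for the full control effect; the text of the record puts the active cut at -80%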
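Tet-induced TRPML1-DL cells loaded with Ca8 no-wash calcium dye were read kinetically on FDSS. Compound addition was followed by EC80 agonist 54-4 (4 uM final); inhibition was read over 110 s.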
* marks the source's active call; other numbers are inactive results; ? = inconclusive; . = not tested or not shown; [ ] = remark or other dose. Random draw from the library. Share with any hit: about 4.9%.

SMILES	gsp ag	Sfp inh	ClpP mod	TRPV1 PAM	gsp antagonist	Menin-MLL FL inh	TRPML1 inh
O=[N+]([O-])c1cc2c(c(CSc3nnnn3-c3ccc(O)cc3)c1)OCOC2	-1.1%[15.4 µM]	-5.8%	0.2%	7.5	?	6.4	3.5
COc1cccc(-c2nc(-c3ccccc3)[nH]c(=O)c2C#N)c1	-16.6%[15.4 µM]	27.3%	-1.3%	9.2	-15.6%	1.6	-0.3
OCC1(CCOc2ccccc2)CCN(CC2=Cc3cc(Cl)ccc3OC2)CC1	-17.0%	-19.3%	.	-4.8	4.9%	-4.3	-13.9
Cc1ccccc1NCN1C(=O)C2CCC(C)(C1=O)C2(C)C (stereo not given)	?	11.7%	-0.2%	-17.6	7.6%	-2.3	.
CCc1[nH]nc2c1C(c1ccc(Br)s1)C(C#N)=C(N)O2 (stereo not given)	-19.7%	-0.9%	-0.1%	-0.2	15.9%	2.1	2.2
COc1ccccc1NC(=O)c1ccc(S(=O)(=O)N2CCCC2)cc1	-1.7%	2.1%	-0.2%	-9.1	2.7%	2.4	-10.1
COC(=O)c1c(C)[nH]c(C(C)=O)c1C	2.4%	1.7%	-2.6%	-2.1	4.1%	2.1	-5.8
COc1cccc(OC)c1C(=O)Oc1ccc2c(c1)O/C(=C\c1ccncc1)C2=O	-17.1%	-5.5%	-1.9%	-0.5	-15.2%	-4.3	24.6
CCOCCCn1c(=S)[nH]c2cc(C(=O)N3CCN(c4ccccc4)CC3)ccc2c1=O	28.8%	5.2%	0.7%	3.4	-10.9%	1.5	15.9
CCOc1ccc(N2CC(C(=O)Nc3ccc(OC)c(S(=O)(=O)N4CCCCC4)c3)CC2=O)cc1 (stereo not given)	-2.3%[15.4 µM]	6.6%	28.2µM*	4.2	-11.9%	-11.8	-10.0
COc1ccc(C(=O)Nc2cc3c(oc2=O)CCCC3=O)cc1	12.4%	-3.4%	.	-4.0	-5.5%	4.2	-12.8
CC(C)C(=O)N1CCN(c2ccccc2NC(=O)c2cccc3ccccc23)CC1	-3.5%	-9.0%	.	-15.6	?	2.2	24.4
NC(=O)N/N=C/c1ccccc1OCC(=O)NCc1ccccc1	-12.6%	16.4%	-3.9%	7.1	-1.8%	4.8	2.5
Fc1ccc2cnc(C3=CCCCC3)cc2c1	-7.5%	.	-13.4%	.	2.3%	.	-6.1
COc1ccc(OCCOC(=O)C(C)NS(=O)(=O)c2ccc(NC(C)=O)cc2)cc1 (stereo not given)	?	.	-1.9%	-8.9	-24.9%	.	5.6
CCOC(=O)CCC(NC(=O)CC(=O)NC(CCC(=O)OCC)C(=O)OCC)C(=O)OCC (stereo not given)	?	4.4%	1.8%	-5.0	6.4%	-3.9	?
Cc1ccc(N(CC(=O)Nc2c(C)n(C)n(-c3ccccc3)c2=O)S(C)(=O)=O)c(C)c1	-3.6%	24.1%	-0.9%	-0.8	-1.8%	1.2	-8.1
NNS(=O)(=O)c1ccc(N2CCCC2=O)c([N+](=O)[O-])c1	-0.6%	?	-1.5%	5.4	-10.0%	0.1	-16.6
Cc1ccc2c(CN(C)Cc3ccc(Cl)cc3)cc(=O)oc2c1	3.4%[15.4 µM]	-8.9%	.	0.8	-11.0%	3.9	7.4
CN(CC(=O)Nc1ccccc1Cl)C(=O)c1ccccc1Sc1ccccc1C#N	-15.8%	.	0.7%	6.4	-13.5%	.	-8.0
CCOc1ccc(CCNC(=O)CCNS(=O)(=O)c2ccc(Br)cc2)cc1OCC	-13.0%	4.9%	-0.7%	-26.8	-9.8%	.	6.8
N#Cc1ccccc1CSc1nnc(Cc2ccccc2)o1	-19.1%	-2.1%	.	9.1	4.6%	-0.8	1.2
O=C(NCCN1CCOCC1)C1(C(F)(F)F)CC(CCCO)CCCO1 (stereo not given)	.	16.0%	.	.	.	-1.1	4.0
Cc1ccccc1C(=O)N1CCC(C(=O)Nc2ccccc2Cl)CC1	11.7%	2.4%	-2.3%	0.3	-18.2%	.	3.1
COc1cccc(C(=O)OCCN(C)C(C)(C)C)c1	.	18.4%	.	-3.4	.	0.1	.
C=C(C)CNC(=S)NNC(=O)c1ccncc1	2.9%	2.3%	1.1%	-1.2	6.9%	-5.0	23.3
O=C(Oc1ccc(Cl)cc1)N1CCCCC1	-6.3%	-2.9%	-0.9%	-7.4	0.5%	0.3	2.6
COc1cccc(/C=C2/SC(=S)N(CC(=O)Nc3nnc(C)s3)C2=O)c1	-11.6%	-24.4%	-0.4%	?	-6.9%	0.4	-12.9
COc1cccc(-c2sc3ccccc3c2-c2ccc(OCCN(C)C)cc2)c1	.	.	?	.	22.6%	.	-14.6
CN(C(=S)Nc1ccc(F)cc1)C(c1ccccc1)c1ccccc1	-50.2%[inhibitor]	10.6%	-0.9%	9.9	-7.5%	6.5	16.3

Three of the entries above in order of the gsp ag value, highest first:
structure	gsp ag
Cc1ccc(N(CC(=O)Nc2c(C)n(C)n(-c3ccccc3)c2=O)S(C)(=O)=O)c(C)c1	-3.6%
O=C(Oc1ccc(Cl)cc1)N1CCCCC1	-6.3%
CCOc1ccc(CCNC(=O)CCNS(=O)(=O)c2ccc(Br)cc2)cc1OCC	-13.0%

(next part)
SMILES	gsp ag	Sfp inh	ClpP mod	TRPV1 PAM	gsp antagonist	Menin-MLL FL inh	TRPML1 inh
COc1ccc(C2C(C(C)=O)=C(O)C(=O)N2c2nccs2)cc1 (stereo not given)	21.5%	11.1%	-0.4%	12.6	-16.8%	2.0	-1.7
O=C(Cn1cnc2c(OCc3ccccc3)ncnc21)N[C@H](CO)Cc1cc2ccccc2[nH]1	.	.	2.7%	.	7.7%	.	15.0
COc1ccc(S(=O)(=O)NC(C(=O)OCC(=O)Nc2ccc(N3CCOCC3)cc2)C(C)C)cc1 (stereo not given)	4.5%[15.4 µM]	.	0.6%	.	-21.5%	.	29.5
CC(C)C(OC(=O)c1cccc(S(=O)(=O)NCC(F)(F)F)c1)C(=O)NC(N)=O (stereo not given)	4.0%[15.4 µM]	14.6%	0.6%	-5.5	-2.3%	-0.2	2.8
Clc1ccc(-c2nnc(-c3ccccc3)nc2N2CCSCC2)cc1	-42.7%[inhibitor]	-6.2%	1.6%	18.8	-20.3%	8.2	21.1
NCCC(=O)NCCc1cnc[nH]1	.	-3.8%	-0.2%	-6.9	8.1%	3.7	-2.8
CS(=O)(=O)N(CC(=O)NCc1ccncc1)c1cc(Cl)ccc1Cl	-2.8%[15.4 µM]	17.3%	.	-7.2	-5.9%	-5.5	2.3
CCc1cc(CNC(=O)CC2C(=O)NCCN2Cc2c(F)cccc2Cl)on1 (stereo not given)	15.9%[15.4 µM]	12.0%	.	-10.1	-1.1%	3.5	8.6
CCOC(=O)c1cc(C(=O)OCC)c2ccccn2c1=O	-4.9%	5.5%	?	-3.1	1.3%	6.4	8.6
Nc1cc(=O)[nH]c(SCC(=O)N2CCc3ccccc3C2)n1	2.6%	6.0%	-0.3%	2.2	8.1%	-0.4	27.1
COC(=O)N[C@@H]1C[C@H]2[C@@H]3CC[C@H]4C[C@@H](OC)CC[C@]4(C)[C@H]3CC[C@@]12C	.	.	-1.8%	-11.0	-15.9%	.	52.4
Clc1ccc(CN2CCN(c3ncccn3)CC2)cc1Cl	?	-15.0%	.	-9.6	11.8%	-6.4	8.4
CCC(=O)Nc1ccc(-c2ccc(N3CCCCC3)nn2)cc1	-11.3%	14.4%	-11.6%	3.7	14.1%	-1.0	10.4
COc1ccc(N=C2S/C(=C\c3ccc(OCC(=O)O)cc3)C(=O)N2CCc2c[nH]c3ccccc23)cc1	-79.2%[inhibitor]	?	.	19.7	-13.2%	21.0	-8.5
CN(C)S(=O)(=O)c1ccc(C(=O)Nc2cc(S(=O)(=O)Nc3ccccc3Cl)ccc2N2CCCCC2)cc1	-10.9%	0.8%	-15.9%	2.5	-9.6%	3.3	8.8
Cc1noc(C(=O)N(C)c2ccccc2)c1Cl	?	10.3%	-0.3%	0.0	16.2%	-5.9	.
O=S(=O)(Nc1ccc2ccccc2c1)c1ccccc1	6.2%	3.9%	14.1µM*	10.1	3.6%	4.2	11.6
Cc1cc(=O)c2c(o1)C(=O)c1occc1C2=O	0.2%	.	2.6%	.	-1.3%	.	7.0
CCCCOc1cccc(C(=O)Nc2ccccc2N2CCCC2)c1	-2.7%[15.4 µM]	-8.7%	-0.4%	-12.6	-16.1%	6.3	11.5
CCN1CCN(c2cc(C)c3cc(NC(=O)CCC(=O)N4CCN(c5ccccc5)CC4)ccc3n2)CC1	-14.9%	13.6%	.	?	1.2%	-0.6	-11.1
Cc1ccc([N+](=O)[O-])cc1NC(=O)C(Sc1ccccc1)c1ccccc1 (stereo not given)	-20.1%	-24.7%	-7.7%	6.2	-10.3%	-0.3	7.0
CCOC(=O)CCCCC1C(CCCC(=O)OCC)C=NN1C (stereo not given)	-42.1%[inhibitor]	.	-1.8%	.	-16.0%	.	-7.3
Cc1ccccc1N1CCN(C2=NC(=O)/C(=C/c3cn[nH]c3-c3ccccc3)S2)CC1	-26.6%[15.4 µM]	2.8%	-2.3%	-1.7	2.4%	4.5	-12.9
CCN1CCN(C(=O)c2ccccc2NS(=O)(=O)c2ccc(Cl)cc2)CC1	-1.3%[15.4 µM]	14.5%	1.8%	2.7	16.3%	2.8	18.8
CCN(CC)c1ccc(C(=O)Nn2cnc3ccccc3c2=O)cc1	?	-4.0%	.	-7.0	5.8%	5.0	11.9
CC1Cc2ccccc2N1C(=O)CN1CCN(S(=O)(=O)c2cccs2)CC1 (stereo not given)	0.1%	.	0.5%	-5.9	-6.8%	.	-15.0
Cc1nn(C)cc1S(=O)(=O)N1CCCC(C(=O)O)C1 (stereo not given)	?	-10.3%	.	-4.5	1.8%	-0.8	7.6
COc1ccc(OCC(=O)Nc2ccc(N3CCN(Cc4ccccc4F)CC3)cc2)cc1	?	21.6%	-0.3%	-0.8	6.8%	-6.0	-17.0
O=C(CSc1ccc2nnc(CCNS(=O)(=O)c3ccccc3)n2n1)Nc1nc2ccccc2s1	9.8%	1.9%	-16.3%	-3.8	0.3%	11.0	0.5
